miR-21 reporter = qHTS Assay for Modulators of miRNAs and/orActivators of miR-21 | HeLa miR-21 FLuc reporter, luciferase, 48 h | Potency, µM (doses to about 38.3 µM), inactives show at the top dose reporter change, positive = more light | 340,000 tested, under 10 active | AID 2288, 2010; active = well fitted rising curve with a large enough effect; inconclusive = small, poorly fitted or top-dose-only effect; inactive = no such curve, though single readings can be large or run the other way;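 note: % of control where 0% means no effect; miR-21 action dims this reporter so a rising signal means less miR-21 action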
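Compounds were titrated across several concentrations (up to approximately 40 uM) and incubated 48 hours with HeLa miR-21-FLuc reporter cells (miR-21 target sequence downstream of FLuc, endogenous miR-21). Readout was firefly luciferase luminescence after lytic detection reagent.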
Rango dissoc inh = qHTS Assay for Inhibitors of RanGTP induced Rango (Ran-regulated importin-beta cargo) - Importin beta complex dissociation; Biochemical FRET Rango-importin beta, RanGTP-induced dissociation; 0.071% of 340,000 active; Potency, µM (doses to about 46.1 µM), for the others: at the highest dose activity change, negative = inhibition; active means falling FRET ratio curve, often poorly fitted, with flat reads before Ran was added; inconclusive means other falling curves, or compound fluorescence or quenching; inactive means flat or rising ratio curve;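 note: potency is the fitted concentration of half-maximal effect; % of control where 0% means no effect; nearly all actives have a fitted effect of over 45% in size; -100% = wells without RanGTP and RCC1; the record marks most hits as doubtful in a second field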
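Compounds sat 5 min at room temperature with 0.1 uM Rango biosensor plus 0.25 uM importin beta, then FRET pre-read. RanGTP-RCC1 (0.6 uM Ran, 2mM GTP, 0.2 uM RCC1) added for 45 min, and the CFP/YFP post-read measured blocked complex dissociation.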
GLA inh pH 4.5 = qHTS Assay for Inhibitors of Human alpha-Galactosidase at pH 4.5; Alpha-galactosidase A (Homo sapiens), P06280; purified enzyme, 4-MU-alpha-Gal fluorescence, pH 4.5; activity change, negative = inhibition, % at 105 µM; 230,000 tested, under 10 active; AID 1467, 2008; inconclusive = small, poorly fitted or top-dose-only inhibition, or a rising curve; inactive = flat fitted curve, though single readings scatter; no compound was filed as active;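 note: 0% = full activity with enzyme and -100% = basal without enzyme; dose as in the result columns while the protocol names 77 µM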
Rango-impB inh = qHTS Assay for Inhibitors of Rango (Ran-regulated importin-beta cargo) - Importin beta complex formation; Importin subunit beta-1 (Homo sapiens), Q14974; Rango CFP/YFP FRET sensor + importin beta, 45 min; Potency, µM (series often up to 92.2 µM), for the others: at the top dose inhibition of complex formation; 0.031% of 340,000 active; active = rising FRET ratio curve, often small or poorly fitted; inconclusive = mostly compound fluorescence or quenching in the first reads; inactive = flat curves in all reads;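 note: potency is the fitted concentration of half-maximal effect; 0% = DMSO wells and 100% = buffer wells lacking importin beta; nearly all actives have a fitted effect of over 15% in size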
Target sequence (Q14974 whole entry, looked up): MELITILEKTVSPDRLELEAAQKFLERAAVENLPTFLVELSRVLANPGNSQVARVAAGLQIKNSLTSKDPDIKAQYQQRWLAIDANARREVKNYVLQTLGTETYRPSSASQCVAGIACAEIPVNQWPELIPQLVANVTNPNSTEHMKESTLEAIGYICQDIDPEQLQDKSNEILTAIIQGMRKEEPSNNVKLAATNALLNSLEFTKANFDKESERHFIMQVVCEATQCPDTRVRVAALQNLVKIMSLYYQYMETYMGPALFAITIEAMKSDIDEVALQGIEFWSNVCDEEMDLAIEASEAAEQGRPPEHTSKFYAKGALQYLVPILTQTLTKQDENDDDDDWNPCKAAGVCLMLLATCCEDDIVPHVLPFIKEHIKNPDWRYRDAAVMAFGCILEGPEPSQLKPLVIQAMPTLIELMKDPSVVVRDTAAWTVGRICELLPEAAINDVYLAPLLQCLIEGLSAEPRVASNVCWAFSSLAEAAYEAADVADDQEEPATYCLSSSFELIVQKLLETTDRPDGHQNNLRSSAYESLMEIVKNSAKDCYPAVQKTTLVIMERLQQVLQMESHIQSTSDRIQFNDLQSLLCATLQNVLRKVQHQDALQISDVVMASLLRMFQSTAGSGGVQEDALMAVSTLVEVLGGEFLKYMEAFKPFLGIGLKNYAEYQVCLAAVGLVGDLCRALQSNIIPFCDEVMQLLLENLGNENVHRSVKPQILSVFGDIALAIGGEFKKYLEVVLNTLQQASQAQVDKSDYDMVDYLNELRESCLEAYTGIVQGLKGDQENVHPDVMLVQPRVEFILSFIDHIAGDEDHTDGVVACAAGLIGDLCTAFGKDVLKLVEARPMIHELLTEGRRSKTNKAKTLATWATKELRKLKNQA
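FRET biosensor (snurportin 1 IBB flanked by EYFP and cerulean), 50 nM, with compound 5 min, then 0.125 microM importin beta in PBS, 1 mM DTT, 0.02% Tween-20, 0.1% BSA. CFP/YFP ratio read after 45 min at room temperature; pre-read flags interference.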
* = called active by the depositor; u = inconclusive; x = no result given; & = joins results of further samples; [ ] = remark or other dose. An excerpt; the hit share may differ from the screen's.

SMILES	miR-21 reporter	Rango dissoc inh	GLA inh pH 4.5	Rango-impB inh
CCN1CCN(CCCNc2ncnc3nc[nH]c23)CC1	-4%	2%	-1	2.9%
O=C(O)CC(NC(=O)c1sc2ccccc2c1Cl)c1ccc(OC2CCCC2)cc1 (stereo not given)	-5%	0%	2	-2.8%
COc1cc(CNCc2cccs2)cc(Br)c1OC	-11%	3%	7	-0.7%
CC1CCCC(C)N1NC(=O)c1ccc(Cl)c(S(N)(=O)=O)c1 (stereo not given)	-4%	1%	1&2	-2.9%
CN(CC(=O)NCCc1ccc(S(N)(=O)=O)cc1)CC(=O)Nc1ccccc1Cl	x	-9%	x	-0.2%
COc1ccccc1-n1nnnc1SCC(=O)NCC1(N2CCCCC2)CCCCC1	x	-11%	x	1.7%
Cc1cccc(NC(=S)Nc2ccc(Br)cc2)c1	3%	6%	5	-0.4%
CSc1sc(C)cc1C=O	-2%	8%	-1	-0.4%
CCN(CC)c1ccc(NC(=O)c2cc(Cl)ccc2OC)cc1	-19%	1%	-12	-1.0%
Cn1c(N)c(S(=O)(=O)N2CCN(C(=O)c3ccco3)CC2)c(=O)n(C)c1=O	4%	u	-3	1.8%
CC(C)Oc1ccc(/C(O)=C2/C(=O)C(=O)N(CCN(C)C)C2c2ccco2)cc1 (stereo not given)	-29%	-26%	-10	0.5%
COc1ccccc1/C=C/C=NC1C(=O)N(c2ccccc2)[N+](C)=C1C (stereo not given)	-4%	2%	11	-4.7%
CC(CNS(=O)(=O)c1ccccc1)(c1ccccc1)N1CCOCC1 (stereo not given)	-6%	11%	2	-0.3%
Cc1cc(N2CCOCC2)nc(-c2ccccc2O)n1	-38%	2%	-3	-0.2%
Cc1noc(NS(=O)(=O)c2ccc(NC(=O)CCC3CCCCC3)cc2)c1C	3%	1%	-2	0.5%
CCOC(=O)c1ccccc1NC(=O)Cc1ccc(OC)c(S(=O)(=O)N2CCOCC2)c1	x	9%	x	0.3%
COc1ccc(C(C)NS(=O)(=O)Cc2ccccc2)cc1 (stereo not given)	-8%	3%	x	-0.1%
CCOc1ccc(NC(=O)c2ccc(NC(=O)Cc3n[nH]c(=O)c4ccccc34)cc2)cc1	-9%	0%	8	-3.0%
CCOc1ccc2nc(N(CCCN(C)C)C(=O)c3ccc(S(=O)(=O)N4CCCC4)cc3)sc2c1	0%	7%	x	-5.5%
CC(=O)Nc1ccc(NC(=O)C2CC(=O)N(c3cccc(Cl)c3)C2)cc1 (stereo not given)	-1%	20%	12	-1.1%
COc1ccc(-n2nc(C(=O)NCC(=O)N3CCN(c4ccccc4F)CC3)c3ccccc3c2=O)cc1	-23%	14%	x	0.7%
Cc1nnc(SCC(=O)N2CC(C)OC(C)C2)n1-c1ccccc1 (stereo not given)	0%	-21%	x	-1.5%
C[C@@H]1CN(c2c(F)c(F)c3c(=O)c(C(=O)O)cn(C4CC4)c3c2F)C[C@H](C)N1	-2%	-9%	x	1.1%
CC(C)N(C(=O)c1ccc2nc(-c3ccccc3)c(-c3ccccc3)nc2c1)C(C)C	2%	13%	-17	-2.0%
CCOCCCNc1nc(-c2ccccc2)nc2ccccc12	19%	-9%	x	2.2%
NC(=O)c1ccccc1OCC(=O)NC12CC3CC(CC(C3)C1)C2	-13%	18%	-9	-2.1%
CC1CCCCC1NC(=O)CCS(=O)(=O)c1cc2c(cc1Cl)NC(=O)CO2 (stereo not given)	-5%	0%	x	u
CCOC(=O)Cn1nc(-c2ccc(C)cc2)c2ccccc2c1=O	3%	0%	-6	4.4%
c1ccc2[nH]c(NCc3ccc4c(c3)OCO4)nc2c1	-35%	12%	-1	-1.4%
C=CCOc1ccc(/C=C/C(=O)OCC(=O)NCC2CCCO2)cc1 (stereo not given)	x	-12%	x	0.1%
Cc1nnc(NC(=O)COc2ccc3c(C)cc(=O)oc3c2)s1	-4%	0%	12	-1.4%
C=CCN(CC=C)C(=O)c1cc(Cl)ccc1[N+](=O)[O-]	-2%	8%	10	-1.1%
CC(=O)Nc1ccc(S(=O)(=O)Nc2nnc(Cc3ccc(Cl)cc3)s2)cc1	2%	1%	x	-0.6%
Cc1ccnc(NC(=O)CCCc2c[nH]c3ccccc23)c1	-10%	1%	x	0.3%
Cc1cc(NCCCN2CCOCC2)n2nc(C)c(-c3ccc(F)cc3)c2n1	0%	1%	-5	2.6%
CC(NC(=O)C1CCCN(S(=O)(=O)N2CCOCC2)C1)c1ccccc1 (stereo not given)	0%	8%	x	0.6%
COCCn1c(SC(C)C(=O)NCC2CCCO2)nc2scc(-c3ccc(F)cc3)c2c1=O (stereo not given)	x	5%	x	3.6%
O=c1c2cc([N+](=O)[O-])cc([N+](=O)[O-])c2[nH]n1-c1ccccc1	-2%	0%	x	-2.1%
CC(C)OCCCNC(=O)C1CCC(CNS(=O)(=O)c2ccc(Cl)cc2)CC1 (stereo not given)	-1%	-11%	-1	0.9%
Cc1cccc(CNC(=O)Cn2ccc3cc(S(=O)(=O)N4CCCC4)ccc32)c1	-1%&-5%	-9%	x	4.5%

A second format for 5 compounds above.
SMILES | miR-21 reporter | Rango dissoc inh | GLA inh pH 4.5 | Rango-impB inh
CCN1CCN(CCCNc2ncnc3nc[nH]c23)CC1 | -4% | 2% | -1 | 2.9%
CC(C)N(C(=O)c1ccc2nc(-c3ccccc3)c(-c3ccccc3)nc2c1)C(C)C | 2% | 13% | -17 | -2.0%
c1ccc2[nH]c(NCc3ccc4c(c3)OCO4)nc2c1 | -35% | 12% | -1 | -1.4%
Cc1nnc(NC(=O)COc2ccc3c(C)cc(=O)oc3c2)s1 | -4% | 0% | 12 | -1.4%
CCOc1ccc(NC(=O)c2ccc(NC(=O)Cc3n[nH]c(=O)c4ccccc34)cc2)cc1 | -9% | 0% | 8 | -3.0%

Following part
SMILES	miR-21 reporter	Rango dissoc inh	GLA inh pH 4.5	Rango-impB inh
Cc1cccc(NC(=O)C(C)Sc2nc3nc(C)cc(C)n3n2)c1 (stereo not given)	x	-16%	x	0.7%
CCN(CC)C(=O)CSc1nc2cc3c(cc2c(=O)n1Cc1ccco1)OCO3	4%	-3%	7	u
CCOC(=O)CNC(=S)N(CCCN1CCCCCC1)Cc1cccs1	-9%	1%	1[21.1 µM]	-1.7%
O=C1c2ccccc2NC(c2c(Cl)cccc2Cl)N1Cc1ccccc1 (stereo not given)	19%	0%	-18	-0.6%
Cc1cc(C)nc(SCC(=O)NC2=NN=C(c3ccc(Br)cc3)CS2)n1	u	9%	-4	2.8%
CCOC(=O)C[C@H]1c2cc(C(F)(F)F)ccc2S(=O)(=O)N1C(C)C	x	9%	x	0.5%
COc1cc(NC(=O)CCc2c(C)noc2C)c(Cl)cc1C(=O)O	x	8%	x	-1.2%
Cc1cc(Br)c(NC(=O)c2ccccc2[N+](=O)[O-])cc1C	-6%	-1%	-5	-1.9%
CCOC(=O)CNC(=O)Nc1ccccc1C(=O)OC	3%	0%	1	0.1%
CCOC(=O)c1ccccc1OCc1cc(/C=N/n2cncn2)ccc1OC	3%	1%	3	-0.7%
CCN1C(=O)c2ccccc2S(=O)c2ccc(C(=O)N3CCCCCC3)cc21 (stereo not given)	-12%	-3%	2	4.6%
O=C(CSc1nnnn1-c1ccccc1)c1ccco1	-42%	10%	5	-1.0%
Cc1cc(C)c(S(=O)(=O)c2ccc(F)cc2C)c(Cl)n1	4%	u	x	1.2%
O=[N+]([O-])c1cc(/C=N/O)ccc1Oc1cccc(Cl)c1	-30%	-6%	0	2.5%
CN(CC(=O)Nc1ccccc1Cl)C(=O)c1cc(=O)[nH]c2ccccc12	4%	13%	7	1.3%
O=C(c1cccc(F)c1)N1CCc2ccccc21	-1%	10%	-1	0.6%
COc1cccc(-c2cc(C(=O)Nc3cnn(Cc4ccccc4C)c3)no2)c1	-7%	3%	4	0.3%
COc1ccc(NC(=O)CSc2nccn2-c2ccccc2)c(OC)c1	-8%	-4%	-8	-0.2%
O=c1oc2ccccc2c2c1ccc1ccccc12	x	u	x	-2.9%
O=C(NCc1ccncc1)c1ccc(OCc2ccccc2)cc1	x	-9%	x	-2.8%

Taken from above.
Under GLA inh pH 4.5, COc1cccc(-c2cc(C(=O)Nc3cnn(Cc4ccccc4C)c3)no2)c1 reads 4
Under Rango dissoc inh, O=C(CSc1nnnn1-c1ccccc1)c1ccco1 reads 10%
Under miR-21 reporter, CCN1C(=O)c2ccccc2S(=O)c2ccc(C(=O)N3CCCCCC3)cc21 (stereo not given) reads -12%
Under Rango-impB inh, Cc1cc(C)c(S(=O)(=O)c2ccc(F)cc2C)c(Cl)n1 reads 1.2%

More compounds.
SMILES	miR-21 reporter	Rango dissoc inh	GLA inh pH 4.5	Rango-impB inh
CCOC(=O)c1c(NC(=O)C2CCCO2)sc2c1CCC2 (stereo not given)	-20%	-8%	-1	u
Cc1cc(CN2CCC(N3CCC(C(=O)NC4CC4)CC3)CC2)cc(C)c1O	-5%	-7%	x	-4.3%
O=C(COc1ccc(Cc2ccccc2)cc1)c1ccc(F)cc1	-37%	0%	2	4.3%
CN(C)CCCN(C(=O)c1cccc(N2C(=O)CCC2=O)c1)c1nc2cc3c(cc2s1)OCO3	-10%	14%	0	-0.5%
COc1ccc(-c2nc3ccc(C(=O)NCC(OC)OC)cc3nc2-c2ccc(OC)cc2)cc1	-1%	u	-5	u
COc1ccc(C(=O)NC(Nc2ccc(C)cc2)C(Cl)(Cl)Cl)cc1 (stereo not given)	11%	4%	-6	-1.5%
CCCCNC(=O)OC(C)CNC(=O)Oc1cccc(C)c1 (stereo not given)	1%	-9%	-7	0.4%
Cc1ccc(C)c(CN2CCC(CNC(=O)Nc3ccc(Br)cc3F)CC2)c1	-4%&21%	-12%	x	-4.7%
CC(CNC(=O)Cn1cnc2c(OCc3ccccc3)ncnc21)c1ccccc1 (stereo not given)	x	30%	x	-0.7%
Cc1ccc(-c2cc(C(=O)Nc3cccnc3)[nH]n2)c(O)c1C	-67%	31%	4	-3.3%
Clc1nc(-c2ccccc2)cc(-c2ccccc2)n1	-6%	14%	9	0.6%
O=C(NCCc1ccccc1)c1cc(=O)[nH]c2ccccc12	-8%	26%	0	-3.1%
CC(OC(=O)CCc1nc2ccccc2c(=O)[nH]1)C(=O)NC1CCCC1 (stereo not given)	-6%	2%	-1	-2.0%
Cn1c(=O)c([N+](=O)[O-])c(Oc2ccccc2)c2ccccc21	0%	3%	4	4.3%
COc1ccc(-c2nc(CS(=O)CC(=O)NCCc3ccc(C)cc3)c(C)o2)cc1OC (stereo not given)	-8%	6%	x	1.0%
COc1ccc(Cl)cc1C(=O)NC(=S)Nc1ccccc1N1CCOCC1	0%	1%	x	-0.1%
O=C(CC(c1ccccc1)(c1ccccc1)c1ccccc1)N[C@@H](Cc1ccc(O)cc1)C(=O)O	-3%	1%	1	2.6%
O=C(O)C1(c2cccc(Cl)c2)CCC1	-1%	-7%	7	-1.2%
N#Cc1cccc(NC(=O)Cc2ccsc2)c1	-1%	0%	x	1.0%
COc1ccc(CCN(C)C2CCCN(C(=O)CCSC)C2)cc1OC (stereo not given)	1%	-6%	x	1.0%
Cc1ccccc1NC(=O)COC(=O)Cc1cccc(C(F)(F)F)c1	-3%	-6%	1	-8.4%
COCCN1C(=O)N(c2ccc(Cl)cc2)C(=O)C1CC(=O)Nc1cc(OC)cc(OC)c1 (stereo not given)	2%	-2%	x	-1.2%
CC(C)C(NC(=O)c1ccccc1NC(=O)C(C)(C)C)C(=O)N1CCOCC1 (stereo not given)	x	-6%	x	0.2%
CCOCCc1nnc(NC(=O)C(CC)c2ccccc2)s1 (stereo not given)	0%	-26%	6	u
O=S(=O)(NNc1nccc(C(F)(F)F)n1)c1cccc(Cl)c1Cl	1%	-16%	1	-0.2%
C=CCC1C=C(C)CC(CC=C)N1 (stereo not given)	-1%	-3%	-3	-1.1%
COc1ccc(C(=O)Nc2ccc3[nH]ncc3c2)cc1OC	-51%	31%	x	0.3%

Screening data (PubChem BioAssay)
